# WNV NS2B-NS3 inh: inhibitors of West Nile virus NS2B-NS3 protease; WNV NS2B-NS3 protease, fluorogenic substrate Ex360/Em465; stronger effect = lower value; z-score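 (tested at a level between 10 and 100 µM)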; hit rate 0.18% among 65,000;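 active means z-score at -3 or under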;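 further: score is relative to mean and spread of the compound wells of a plate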
# Target sequence (P06935 1371-1501 limits assumed): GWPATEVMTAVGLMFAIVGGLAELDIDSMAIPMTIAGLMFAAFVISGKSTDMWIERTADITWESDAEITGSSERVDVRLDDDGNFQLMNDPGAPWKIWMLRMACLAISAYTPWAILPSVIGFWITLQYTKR
# Target sequence (P06935 1502-1679 limits assumed): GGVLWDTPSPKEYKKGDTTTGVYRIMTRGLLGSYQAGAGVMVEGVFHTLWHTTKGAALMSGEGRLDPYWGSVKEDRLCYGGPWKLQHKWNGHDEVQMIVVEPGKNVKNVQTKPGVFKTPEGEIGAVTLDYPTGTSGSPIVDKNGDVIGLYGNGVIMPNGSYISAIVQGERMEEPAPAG
# Hsc70: small molecules displacing fluorescent ligand from Hsc70 – biochemical, fluorescence polarization, primary screen (AID 568) | Hsc70 fluorescence polarization, probe displacement; higher % means a stronger effect; strong numbers were not always called active | one-dose displacement, % at 20 µM; IC50 in µM for titrated hits | 83,000 tested, under 10 active;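 active means displacement above 50% without optical interference and an IC50 on retest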;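 further: ATPase domain with a fluorescein-tagged ATP probe; 0% = vehicle and 100% = excess ADP; read after one hour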
# MT1-MMP promoter: MT1-MMP gene expression reporter suppression – cell-based, luciferase reporter, luminescence (AID 618) | calls from a first round at 10 µM; hits with a dose series show EC50 in µM | hit rate 0.62% among 87,000 | MT1-MMP promoter luciferase reporter cells, luminescence;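 active means over half of the reporter light lost at 10 µM or EC50 under 50 µM; inactive means the rest and hits that failed the dose series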;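 further: actives suppress MT1-MMP promoter-driven transcription so potencies describe inhibitors; HT1080 fibrosarcoma cells; overnight exposure; toxic or luciferase-blocking compounds were not removed from the actives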
# * hit, by the source's call; i = inactive; . = not tested or not shown. Not all compounds are listed, so the mix of outcomes need not match the whole.
SMILES,WNV NS2B-NS3 inh,Hsc70,MT1-MMP promoter
COc1ccc(NC(=O)c2ccc(Cl)c(S(=O)(=O)N3CCc4ccccc4C3)c2)cn1,-0.55,12%,i
Cc1cc(NC(=O)CSc2nnc3c(C)cc4c(C)ccc(C)c4n23)no1,-0.86,5.8%,i
COc1ccc(C(=O)Nc2ccccc2C(=O)NCCCn2ccnc2)cc1,-0.64,5.8%,i
COC(=O)Cc1cc(=O)[nH]c(Nc2nc3ccccc3o2)n1,1.9,-1.6%,i
COc1ccccc1NC(=O)c1c(C)oc2c1CCCC2,.,5.3%,i
COc1ccccc1NC(=O)NC(N)=O,-0.34,0.9%,i
CN(C1CCCCC1)S(=O)(=O)c1ccc2c(c1)c(=O)c(C(=O)N1CCc3ccccc3C1)cn2C,.,3.9%,i
CSc1nc2cc(F)c(F)cc2n1C,0.35,7.1%,i
CCOC(=O)c1oc2nc(C(C)C)c3c(c2c1N)CC(C)(C)OC3,0.31,9.0%,i
CC(C)(C)NC(=O)Cn1c(SCC(=O)Nc2nccs2)nc2ccccc21,.,4.4%,i
N#Cc1c(N)oc(-c2ccc3c(c2)OCO3)c1-c1ccc2c(c1)OCO2,-0.08,-9.2%,i
Cn1c(SCc2ccccc2)nnc1-c1cnccn1,.,3.6%,i
C[N+](C)(C)C/C=C1/COCO1,-0.12,-0.2%,i
c1ccc(C2NCCn3cccc32)cc1 (stereo not given),-0.85,-1.0%,i
CCCc1nnc(NC(=O)c2ccncc2)s1,-0.68,2.9%,i
O=C(Nc1ccc2c(c1)OCO2)C1(S(=O)(=O)c2ccc(Cl)cc2)CC1,0.03,-3.4%,i
O=C(c1ccc(Cn2c(=O)[nH]c3ccccc3c2=O)cc1)N1CCN(c2ccccc2)CC1,-0.31,0.3%,i
COc1c(C)cccc1C(=O)NC(=S)Nc1ccc2c(c1)Cc1ccccc1-2,.,2.7%,i
CCc1c(C)sc(NC(=O)c2cc(C)no2)c1C#N,-1,-2.0%,i
COc1ccc(Cc2ccc(OC)c(N)c2)cc1N,.,4.4%,i
Cc1cccc(C(=O)N2CCN(c3ccccn3)CC2)c1,.,3.3%,i
COc1ccccc1Cn1c(=S)[nH]c2cc(C(=O)NCCN3CCOCC3)ccc2c1=O,-0.78,4.1%,i
CC(NS(=O)(=O)c1ccc(F)cc1)C(c1cccs1)N1CCN(C)CC1 (stereo not given),1.3,-3.7%,i
CC1CCCN(c2ccc(C(=O)NCC3CCCO3)cn2)C1 (stereo not given),1.4,-2.7%,i
O=C(CSc1ccc2nnc(-c3ccc(F)cc3)n2n1)NCc1ccco1,-0.78,-2.2%,i
SMILES,WNV NS2B-NS3 inh,Hsc70,MT1-MMP promoter
O=C(Cn1ccc2ccccc2c1=O)NCCC(=O)Nc1cccnc1,-1.2,5.9%,i
CCN1C(=Nc2ccc(Cl)cc2)SC/C1=C\C(=O)OC,0.02,4.1%,i
CC(C)(C)CC(=O)N1CCC(c2nc3c(nnn3Cc3c(F)cccc3Cl)c(=O)[nH]2)CC1,1.2,-4.4%,i
Cn1c(=O)c2c(nc(OC/C=C/c3ccccc3)n2C)n(C)c1=O,0.57,1.2%,i
O=S1(=O)NC2CCCCCN2c2ccc(F)cc21 (stereo not given),1.7,2.7%,i
Cc1ccc2cc3c(NC(=O)C(C)C)nn(C)c3nc2c1,-0.6,-5.3%,i
COc1ccc(C2OC(=O)CC2C(=O)N2CCN(c3cc(Cl)ccc3C)CC2)cc1OC (stereo not given),3,5.1%,i
Cc1ccc(NC(=O)c2ccc(-c3nn(C)c(=O)c4ccccc34)cc2)c(C)c1,.,-2.3%,i
CC(=O)Cc1nsc(NC(=O)c2cc(-c3cccc(C(F)(F)F)c3)oc2C)n1,0.98,-0.7%,i
CC(C)(C)OC(=O)NCC12C=CC(O1)C1C(=O)N(Cc3ccccc3)C(=O)C12 (stereo not given),.,5.5%,i
CCOC(=O)C1CCN(c2nnc(N3CCCC3=O)s2)CC1,-0.89,-22%,i
COCCNS(=O)(=O)c1cc(-c2nn(C)c(=O)c3ccccc23)ccc1C,-0.29,5.9%,i
C=CCc1ccccc1OCC(O)CN(CC)CC (stereo not given),.,5.6%,i
COc1cc(OC)cc(C(=O)NCCNC(=O)c2ccccc2)c1,-0.35,3.7%,i
O=c1[nH]c(CN2CCN(CCO)CC2)nc2ccccc12,1.3,0.6%,i
CCNC(=O)C1CCCN1S(=O)(=O)c1ccc(OC)cc1 (stereo not given),-0.95,5.9%,i
c1ccc(-c2ccc3c(c2)c2c4n3CCN=C4CCC2)cc1,.,-6.3%,i
CC(NS(=O)(=O)c1ccccc1)C(c1cccs1)N1CCN(C)CC1 (stereo not given),-0.71,4.0%,i
Cc1cnc(C(=O)Nc2nnc(C)s2)cn1,-0.27,3.3%,i
COC(=O)c1ccc(CSc2nnc(C)s2)cc1,.,4.4%,i
CC(C)CCSc1nc2c(c(=O)[nH]c(=O)n2C)n1CCCc1ccccc1,-0.21,0.7%,i
CCOC(=O)C1=C(N)Oc2cc(O)ccc2C1c1cccnc1 (stereo not given),-0.48,4.2%,i
CCN(CC)S(=O)(=O)c1ccc(-c2nnc(SCc3nnc(-c4ccc(C)cc4)o3)n2CC)cc1,.,-2.9%,i
C=CCn1c(SC(C)C(=O)NCCC2=CCCCC2)nc2ccccc2c1=O (stereo not given),.,-0.4%,i
CCn1cc(C(=O)NC2CCCCC2C)c(=O)c2ccc(C)nc21 (stereo not given),0.12,0.0%,i

# Single values from the results shown:
# Entry of Cc1cnc(C(=O)Nc2nnc(C)s2)cn1 in Hsc70: 3.3%
# Entry of CC(C)(C)OC(=O)NCC12C=CC(O1)C1C(=O)N(Cc3ccccc3)C(=O)C12 (stereo not given) in Hsc70: 5.5%
# Entry of O=C(Cn1ccc2ccccc2c1=O)NCCC(=O)Nc1cccnc1 in Hsc70: 5.9%

# The listing picks up, repeating the 4 entries before the break.
SMILES,WNV NS2B-NS3 inh,Hsc70,MT1-MMP promoter
CCOC(=O)C1=C(N)Oc2cc(O)ccc2C1c1cccnc1 (stereo not given),-0.48,4.2%,i
CCN(CC)S(=O)(=O)c1ccc(-c2nnc(SCc3nnc(-c4ccc(C)cc4)o3)n2CC)cc1,.,-2.9%,i
C=CCn1c(SC(C)C(=O)NCCC2=CCCCC2)nc2ccccc2c1=O (stereo not given),.,-0.4%,i
CCn1cc(C(=O)NC2CCCCC2C)c(=O)c2ccc(C)nc21 (stereo not given),0.12,0.0%,i
CN(C)c1cccc(C(=O)NCC2CCCO2)c1 (stereo not given),-0.22,3.4%,i
O=C(CN1CCOCC1)NCc1ccccc1,0.37,4.8%,i
Cn1c(=O)c2c(nc(CN3CCN(c4ccccc4)CC3)n2Cc2ccccc2F)n(C)c1=O,-0.13,-4.3%,i
Cc1cccc(N2CCN(CC(=O)NCC3CCCCC3)CC2)c1C,1.2,-4.8%,i
O=C(CSc1nnc(-c2ccccc2)o1)NC1CCCCC1,-0.72,2.0%,i
Cc1ccccc1Cn1c(=O)c2c(nc3n2CCN3Cc2ccco2)n(C)c1=O,1.5,-8.0%,i
Cc1cc(C)n(C(=O)c2ccc(C)o2)n1,.,7.2%,i
CCCN(CCC)c1ncnc2c1cnn2-c1ccc(OC)cc1,0.06,2.0%,i
CCOC(=O)Cc1csc(NC(=O)CSc2ncnc3c2cnn3-c2ccc(OC)cc2)n1,1.2,-15%,i
CC(NC(=O)Nc1ccccc1O)(C(F)(F)F)C(F)(F)F,0.33,-2.4%,i
Cc1[nH]n(-c2ccc([N+](=O)[O-])cc2)c(=O)c1C=NCCN1CCN(C(=O)c2ccccc2)CC1,.,-1.4%,i
CCCC(=O)N(Cc1cc2cccc(C)c2[nH]c1=O)c1ccccc1OC,-0.73,-9.2%,i
COc1cc(SC)ccc1C(=O)NC1CCCCC1,1.5,-0.7%,i
COc1ccc(C(=O)Cn2nnc(-c3ccc(N4CCOCC4)cc3)n2)cc1OC,0.98,-0.4%,i
CCOC(=O)c1nnn(-c2nonc2-c2ccccc2)c1C,-0.88,3.6%,i
CC(C)(C)CC(C)(C)Nc1c(-c2ccc(O)cc2)nc2cnccn12,.,-0.8%,i
Cc1cc(C)n2c(Br)c(CSc3nc4ccccc4o3)nc2n1,-0.59,-7.1%,i
COC(=O)c1ccc(NC(=O)CN2C(=O)C3C4C=CC(C4)C3C2=O)cc1 (stereo not given),.,-1.8%,i
CCn1c(C)nc2cc(S(=O)(=O)C(F)(F)F)ccc21,.,2.7%,i
N#CC1=C(N)OC2=C(CCC/C2=C/c2ccoc2)C1c1ccoc1 (stereo not given),-1.2,-14%,i
CCC(C)NC(=O)CSc1nc2ccc(N3CCOCC3)cc2c(=O)n1CCc1ccccc1 (stereo not given),0.08,-1.2%,i
CC(=O)C1(C)N(O)C(C)(C)C(c2ccco2)=[N+]1[O-] (stereo not given),.,1.3%,i
Cc1ccc(CNC(=O)CSc2nc3n[nH]c(C)c3c(=N)n2-c2cccc(C)c2)cc1,.,-1.8%,i
CCCn1c(SCC(=O)N2CCc3ccccc32)nnc1-c1ccncc1,-0.98,-6.2%,i
COc1ccc(CC(=O)Nc2ccc(S(=O)(=O)N(C)C)cc2)cc1OC,.,1.7%,i
SMILES,WNV NS2B-NS3 inh,Hsc70,MT1-MMP promoter
COc1ccc(NC(=O)CSC2CCCCC2)cc1,-1.5,-3.4%,i
O=C(Nc1ccccn1)c1ccc(=O)[nH]n1,-0.39,-0.1%,i
COc1ccc(-c2nnc3ccc(SCC(=O)NCc4ccco4)nn23)cc1,1.1,-3.5%,i
O=C(c1c(F)cccc1F)N1CCN(c2cccc(C(F)(F)F)c2)CC1,-1.1,2.5%,i
Cn1c(=O)c2c(nc(SCCN3CCOCC3)n2Cc2ccccc2Cl)n(C)c1=O,-1.4,2.6%,i
COc1ccc(CC(=O)Nc2c3c(nn2-c2cccc(C)c2C)CS(=O)C3)cc1OC (stereo not given),2.4,0.1%,i
COCC(C)OC(=O)C(C#N)c1nc2ccccc2nc1N1CCN(Cc2ccccc2)CC1 (stereo not given),-0.64,-24%,i
COC(=O)c1ccccc1NC(=O)Cn1cnc2c(cnn2-c2ccc(C)c(C)c2)c1=O,.,-2.5%,i
COc1ccc(-c2nnc(CSc3nc4ccccc4c(=O)n3CC3CCCO3)o2)cc1OC (stereo not given),-0.18,-2.5%,i
Cc1c(NC(=O)CSc2nnc(-c3cccc(Cl)c3)o2)c(=O)n(-c2ccccc2)n1C,0.67,2.0%,i
CCOC(=O)Nc1nc2ccccc2s1,.,-0.2%,i
O=C1CC(c2ccccc2)c2c(O)cc(O)cc2O1 (stereo not given),.,3.6%,i
CCOC(=O)Cc1c(C)c2ccc(N(CC)CC)cc2oc1=O,2,-3.9%,i
CC(NC(=O)c1cccnc1)C(c1cccs1)N1CCOCC1 (stereo not given),-1.1,-3.5%,i
Cc1cc(C)c2[nH]c(=O)c(C(c3nnnn3C(C)(C)C)N(Cc3ccco3)CC3CCCO3)cc2c1 (stereo not given),.,5.4%,i
Cc1cc(=O)n2[nH]c(-c3ccc(Cl)cc3)cc2n1,0.25,0.6%,i
Cc1ccc(NC2(C#N)C(=O)Nc3ccccc32)cc1 (stereo not given),.,4.2%,i
CC(=O)Nc1cccc(OCC(=O)NS(=O)(=O)c2ccc(Cl)cc2)c1,0.27,0.5%,i
COC(=O)c1ccc(Oc2nc(NC(C)C)nc(SC)n2)cc1,0.07,6.2%,i
O=C(CSc1nnc2scc(-c3ccc(Cl)cc3)n12)NCc1ccc2c(c1)OCO2,1.1,-4.8%,i
CCc1cccc(OCCCCNCCO)c1,.,-3.3%,i
CNC(=O)CN1C(=O)CSc2nc(C)cc(C)c21,-0.63,-1.8%,i
CCc1ccc(-n2c(SCc3c(C)noc3C)nnc2-c2ccncc2)cc1,.,-3.1%,i
N#CCSc1nnc(COc2ccc3ccccc3c2)o1,-1.3,2.8%,i
C/C(=N\S(=O)(=O)c1ccc(C)cc1)N1CCN(S(=O)(=O)c2ccccc2)C1,0.14,1.7%,i
SMILES,WNV NS2B-NS3 inh,Hsc70,MT1-MMP promoter
COc1ccc(CN(C2CCCC2)S(=O)(=O)c2ccc(-n3cnnn3)cc2)cc1,0.24,-7.2%,i
O=C(CN1CCOCC1)N1CCN(c2nnc(-c3ccccc3)c3ccccc23)CC1,-0.26,3.3%,i
C=CCn1c(SCC(=O)N(CC)CC)nc(O)cc1=O,-0.5,0.0%,i
CCN(CC)CCn1c(NCc2nc3ccccc3n2Cc2ccccc2)nc2ccccc21,.,4.9%,i
CCN(CCNC(=O)C1CCN(S(=O)(=O)c2cccc3nsnc23)CC1)c1ccccc1,0.86,8.9%,i
C[C@H]1C[C@H]2[C@@H]3CCC4=CC(=O)C=C[C@]4(C)[C@@]3(Cl)[C@@H](O)C[C@]2(C)[C@@]1(O)C(=O)CO,0.17,3.0%,i
O=C1NC(=S)N/C1=C\c1cccc([N+](=O)[O-])c1,.,3.6%,i
CSc1nnc2c3ccccc3n(CCc3ccccc3)c2n1,0.85,-2.8%,i

# Taken from the listing, four compounds:
SMILES,WNV NS2B-NS3 inh,Hsc70,MT1-MMP promoter
COc1ccc(CN(C2CCCC2)S(=O)(=O)c2ccc(-n3cnnn3)cc2)cc1,0.24,-7.2%,i
O=C(CN1CCOCC1)N1CCN(c2nnc(-c3ccccc3)c3ccccc23)CC1,-0.26,3.3%,i
C=CCn1c(SCC(=O)N(CC)CC)nc(O)cc1=O,-0.5,0.0%,i
CCN(CC)CCn1c(NCc2nc3ccccc3n2Cc2ccccc2)nc2ccccc21,.,4.9%,i

# Bioassay records from PubChem.
